Screening results: PubChem BioAssay, National Center for Advancing Translational Sciences (NCATS)
ERG-DNA inh – qHTS for Small Molecule Inhibitors of the ERG Ets/DNA interaction; Transcriptional regulator ERG (Homo sapiens), P11308; fluorescence polarization, His-ERG Ets domain / labelled DNA; Potency, µM (titrated, usually from 76.9 µM), without a hit: at the top dose FP activity, negative = inhibition, usual class: inhibitors; hit rate 0.028% among 370,000; active = well fitted inhibition curve with a large enough effect in the polarisation, with a control signal flat; inconclusive = small, poorly fitted or top-dose-only effect, or effect the other way, or a change in a side signal; inactive = no such curve, though single readings can be large or run the other way; the % refers to the polarisation;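 note: polarization taken with two DNA probes labelled with fluorescein and Texas red; potency is the fitted concentration of half-maximal effect; % of control where 0% means no effect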
Target sequence (P11308 whole entry, looked up, the tested form may be a part): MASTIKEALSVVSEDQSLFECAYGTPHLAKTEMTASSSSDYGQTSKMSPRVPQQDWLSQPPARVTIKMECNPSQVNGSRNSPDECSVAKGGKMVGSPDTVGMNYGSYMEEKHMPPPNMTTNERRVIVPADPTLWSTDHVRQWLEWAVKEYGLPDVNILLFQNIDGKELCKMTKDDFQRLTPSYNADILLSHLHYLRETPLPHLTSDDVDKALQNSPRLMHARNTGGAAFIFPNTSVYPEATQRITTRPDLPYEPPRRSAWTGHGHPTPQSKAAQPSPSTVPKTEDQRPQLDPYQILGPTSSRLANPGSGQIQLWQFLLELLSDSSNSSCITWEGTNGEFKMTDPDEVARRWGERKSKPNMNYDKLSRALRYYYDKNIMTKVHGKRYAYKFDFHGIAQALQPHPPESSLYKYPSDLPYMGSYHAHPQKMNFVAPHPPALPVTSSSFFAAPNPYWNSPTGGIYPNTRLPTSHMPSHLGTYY
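His-tagged ERG Ets domain (1 uM in the protein solution; 300mM KCl, 50mM Tris-HCl, 1mM EDTA, 1mM DTT, pH 7.5) received compound, then a probe mix of 5 nM fluorescein-DNA and 100nM Texas-615-DNA. Fluorescence polarization was read for both dyes.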
D2 ag – HTS Assay for Allosteric Agonists of the Human D2 Dopamine Receptor: Primary Screen for Agonists. activation, % at 2 µM. hit rate 0.53% among 340,000. HEK293 T-REx D2 cells, calcium flux agonist mode. AID 485358, 2010. D(2) dopamine receptor (Homo sapiens), P14416;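 active = activation over 3 SD above normal in the single-dose calcium agonist read, cut at about 30% in these data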; note: 0% is about no effect
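Calcium-flux readout, 1 cycle/sec over 180 s following compound pin transfer, in inducible HEK293 Trex D2 cells (force-coupled); dopamine controls included. Positive calcium responses during this window marked compounds as potential agonists.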
RGS4 inh – Inhibitors of Regulator of G Protein Signaling (RGS) 4: qHTS; Regulator of G-protein signaling 4 (Homo sapiens), P49798; Transcreener GDP fluorescence polarization, RGS4-accelerated GTP hydrolysis; Potency, µM (top dose mostly 114 µM), for the others: at the top dose activity change, negative = inhibition, hits mostly inhibitors; hit rate 0.039% among 390,000; note: potency is the fitted concentration of half-maximal effect; % is set by controls: 0 for no effect and ±100 for the full control effect; nearly all actives have a fitted effect of over 75% in size; some results filed as inactive show a strong effect at the top dose
Target sequence (P49798 whole entry, looked up): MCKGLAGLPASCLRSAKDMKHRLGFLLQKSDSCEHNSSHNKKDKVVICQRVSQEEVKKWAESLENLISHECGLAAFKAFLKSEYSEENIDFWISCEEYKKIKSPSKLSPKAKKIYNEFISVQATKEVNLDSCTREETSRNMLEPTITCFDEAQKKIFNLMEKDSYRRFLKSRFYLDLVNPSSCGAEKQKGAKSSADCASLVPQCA
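MLSMR compounds (23 nl, pin-transferred) preincubated 10 min at room temperature with a 500nM (2x) first reagent, then RGS4 at 900nM (2x) plus Transcreener GDP mix added; fluorescence polarization (620/688 nm) read before and after 90 min at 30 °C.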
Vif-A3F inh – qHTS for Inhibitors of Vif-A3F Interactions: qHTS. HeLa A3F-eYFP + Vif (tagged APOBEC3F with the HIV-1 protein that degrades it), YFP fluorescence increase. Potency, µM (doses to about 46.1 µM), for the others: at the highest dose activity, negative = active. hit rate 0.2% among 390,000. AID 602313, 2012; note: potency is the fitted concentration of half-maximal effect; % of control where 0% means no effect; nearly all actives have a fitted effect of over 65% in size
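HeLa cells stably expressing Vif plus C-terminally eYFP-tagged A3F were seeded, incubated overnight at 37 deg C, dosed with compound, incubated overnight again at 37 deg C. Yellow fluorescence (Ex 488/Em 500-530) reported blocked Vif-mediated A3F-eYFP degradation.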
Glioma ERSR ind – qHTS for Inducers of the Endoplasmic Reticulum Stress Response (ERSR) in Human Glioma: qHTS. U87-MG GRP78 promoter luciferase reporter, 16 h. Potency, µM, for the others: at the highest dose activation, usual class: activators. hit rate 0.02% among 420,000. AID 602332, 2012; note: potency is the fitted concentration of half-maximal effect; series mostly up to about 76 µM; % of control where 0% means no effect; nearly all actives have a fitted effect of over 35% in size
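Stably transfected U87-MG glioma cells carrying a GRP78-based luciferase sensor; 16 h compound incubation. Luminescence end-point read 10 min after Bright-Glo addition at room temperature.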
LDHA block – qHTS assay for inhibitors of human lactate dehydrogenase; purified LDHA, NADH/diaphorase-resazurin fluorescence; active compounds read low; activity change, % (values are at about 110 or 230 µM); hit rate 0.15% among 480,000; in the data active = activity change below about -30%; inconclusive = mostly about -25% to -30%;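 note: plate controls were DMSO wells for no effect and wells without enzyme for full effect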
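LDH5 2 nM; NADH 0.06 mM, pyruvate 0.2 mM; 200 mM Tris pH 7.4, EDTA, Tween-20; 5 min RT. Detection: diaphorase 0.133 mg/mL + resazurin 37 µM, fluorescence ex540/em590 at 0 and 20 min; normalized to enzyme-free and DMSO wells.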
D2 antagonist – HTS Assay for Allosteric Antagonists of the Human D2 Dopamine Receptor: Primary Screen for Antagonists; D(2) dopamine receptor (Homo sapiens), P14416; HEK293 TREx D2 cells, calcium flux, dopamine EC80; inhibition, % at 10 µM; hit rate 2% among 340,000; AID 485344, 2010; in the data active = inhibition above about 30%; note: 0% is about no effect
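Measurement of antagonist activity uses fluorescent calcium dye in inducible HEK293 T-REx D2 cells: 10 s baseline, compound addition with 180 s read, EC80 dopamine addition with a further 180 s read.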
Vif-APOBEC3G blk – qHTS for Inhibitors of Vif-A3G Interactions: qHTS; HeLa A3G-eYFP + Vif (tagged APOBEC3G with the HIV-1 protein that degrades it), YFP fluorescence, overnight; hit rate 0.076% among 410,000; DNA dC->dU-editing enzyme APOBEC-3G (Homo sapiens), Q9HC16; AID 602310, 2012; Potency, µM (series often up to 46.1 µM), for inactives: at the top dose activity, negative = active, actives largely listed as inhibitors;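 note: potency is the fitted concentration of half-maximal effect; % is set by controls: 0 for no effect and ±100 for the full control effect; nearly all actives have a fitted effect of over 60% in size; hits raise eYFP signal because A3G escapes Vif-driven loss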
Target sequence (Q9HC16 whole entry, looked up): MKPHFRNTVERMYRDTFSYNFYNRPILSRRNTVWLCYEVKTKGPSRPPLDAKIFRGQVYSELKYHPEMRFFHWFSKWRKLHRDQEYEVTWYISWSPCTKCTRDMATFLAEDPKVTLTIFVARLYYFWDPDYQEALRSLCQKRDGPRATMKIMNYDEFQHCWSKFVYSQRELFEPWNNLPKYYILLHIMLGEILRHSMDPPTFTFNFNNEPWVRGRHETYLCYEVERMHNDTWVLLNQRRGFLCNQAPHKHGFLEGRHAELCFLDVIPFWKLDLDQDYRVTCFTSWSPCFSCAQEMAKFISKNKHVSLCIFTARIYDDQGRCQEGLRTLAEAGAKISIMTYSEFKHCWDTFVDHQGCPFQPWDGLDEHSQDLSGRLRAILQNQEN
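HeLa cells stably expressing Vif and C-terminally eYFP-tagged A3G, seeded overnight at 37 deg C, then exposed to compound by pintool overnight at 37 deg C. Rise in yellow fluorescence (Ex 488/Em 500-530, Acumen) marks blocked Vif-driven A3G degradation.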
Starred values were filed as active, the others as inactive; ? = inconclusive; · = not tested or not shown; & = joins results of further samples; [ ] = another dose, or the depositor's remark. Unless noted, calls come from the whole dose curve; as a rule, active = well fitted curve in the direction sought with a large enough effect; inconclusive = small, poorly fitted or top-dose-only effect, or another doubt; inactive = no such curve, though single readings can be large; an effect the other way counts as inactive or inconclusive. Only part of the results is shown; rates above refer to the full screens.

mol	ERG-DNA inh	D2 ag	RGS4 inh	Vif-A3F inh	Glioma ERSR ind	LDHA block	D2 antagonist	Vif-APOBEC3G blk
O=C1C2C3C=CC(CC3)C2C(=O)N1c1cccc(C(F)(F)F)c1 (centres undefined)	10%	0.9	11%	-6%	-3%	-3	13	-2%
CCCCn1c(N)c(N(C)C(=O)c2cc3c(F)cccc3s2)c(=O)[nH]c1=O	3%	·	1%	9%	-4%	-5	·	4%
CC(/C=N/NC(=O)c1n[nH]c2c1CCC2)=C\c1ccccc1	-1%	-0.9	-17%[56.9 µM]	-4%	-5%	-7	-12	-50%
CCN(C(=O)CSc1nnc(Cc2cccc3ccccc23)n1N)C1CCS(=O)(=O)C1 (centres undefined)	-4%	-0.1	18%	1%	1%	-4	-4	2%
O=C(CSc1n[nH]c(-c2ccccc2O)n1)N1CCOCC1	10%	-0.1	-1%	-3%	-1%	17	9	-6%
Cc1ccc(-c2cc(C(=O)N3N=C(C(F)F)CC3(O)C(F)F)c3ccccc3n2)cc1C (centres undefined)	-3%	1.4	-3%	-15%	?	6	-5	?
COc1ccc(NC(=S)NCCC(c2ccccc2)c2ccccc2)c(OC)c1	-4%	-0.6	15%	7%	-7%	-6	12	2%
COc1ccc(/C=C2\N=C(SC)SC2=O)cc1OC	-9%	-0.1	-7%	0%	-2%	-1	19	-2%
CC1C(c2ccccc2)N(C)C(c2ccccc2)C(C)C1(O)C#Cc1ccccc1 (centres undefined)	3%	0.4	-11%	?	-5%	2	10	-1%
O=C(c1ccccc1)C(O)(CN1CCCCC1)c1ccccc1 (centres undefined)	8%	·	-30%	3%	-2%	-7	·	-2%
CC(=O)c1sc(NC(=O)C2CCN(C(=O)c3ccc(F)cc3)CC2)nc1-c1ccccc1	12%	-0.1	-22%	2%	-5%	-4	-4	-1%
CC(C)COc1ccc(CNC(=S)NCc2ccccc2)cc1	·	0.1	6%	-3%	-2%	-4	-1	-7%
O=C(O)COc1ccc(/C=N/Nc2nc(Nc3ccccc3)nc(N3CCCCC3)n2)cc1	5%	-0.5	-9%	-4%	-1%	2	-15	1%
Cc1ccc(N(Cc2ccccc2)C(=O)c2cc(S(=O)(=O)N3CCOCC3)ccc2Cl)cc1	3%	-0.8	-1%	-25%	-1%	-7	2	-13%
O=C(O)[C@@H](O)[C@H](O)C(=O)O	-6%	·	9%	1%	-1%	-13	·	2%
O=C1OC(/C=C/c2ccccc2)=NC/1=C/C=C/c1ccccc1	-4%	0.5	-1%	0%	0%	-13	4	2%
COc1ccc(/C(C)=N/NC(=O)c2ccncc2)cc1	10%	-0.3	1%	0%	1%	1	-13	1%
CCN=C1S/C(=C\c2ccc(N3CCOCC3)cc2C)C(=O)N1CC	29%	3.0	13%	?	2%	-9	-5	?
COc1ccc(C(=O)NC(=S)NCc2ccccc2)cc1	-5%	-1.2	-44%	2%	0%	-1	17	1%
NCCOc1ccc(C2CCCCC2)cc1	2%	0.8	7%	-1%	-7%	-1&-1	17	1%
Cc1cc(=O)[nH]c(/N=C(\N)Nc2ccc(Oc3ccccc3)cc2)n1	-4%	-0.1	-2%	-18%	-2%	0	-8	-3%
Cc1c(C2C(C#N)=C(N)N(c3cccc([N+](=O)[O-])c3)C3=C2C(=O)CCC3)cnn1C (centres undefined)	·	0.6	·	·	·	·	-6	·
COc1ccc(OCC(=O)NNC(=O)c2ccccn2)cc1	7%	-0.2	-8%[56.9 µM]	1%	-6%	14	11	1%
O=C(O)C(Cc1cc(Cl)ccc1Cl)Sc1nc2ccccc2[nH]1 (centres undefined)	-5%	-0.5	4%	1%	-3%	-6	-1	-2%
Cc1cccc(N/N=C(\C(N)=O)C2=NC(C)(C)Cc3ccccc32)c1	-6%	-1.4	15%	1%	-6%	-3	4	-1%
CS(=O)(=O)n1nc(-c2ccccc2)nc1N	·	0.3	-10%	-18%	-3%	-6	-7	3%
Cn1c(SCC(=O)Nc2ccc(C(=O)O)cc2)nc2scc(-c3ccccc3Cl)c2c1=O	3%	·	13%	-30%	-3%	-5	·	2%
CC(C)c1ccc2oc(-c3ccc(Cl)c(NC(=O)c4cccs4)c3)nc2c1	2%	-0.3	9%	3%	0%	-8	·	-3%
O=C1N(c2ccc3c(c2)OCCO3)C(c2ccccc2)C1(F)F (centres undefined)	-9%	-0.7	15%	6%	7%	0	-10	3%
COc1ccc(C(=O)OCc2cc(=O)n3nc(C4CC4)sc3n2)cc1OC	-1%	-0.4	15%	-16%	-2%	0	·	4%

Sorted by molar mass (smallest number first): part of the list above.
mol	ERG-DNA inh	D2 ag	RGS4 inh	Vif-A3F inh	Glioma ERSR ind	LDHA block	D2 antagonist	Vif-APOBEC3G blk
NCCOc1ccc(C2CCCCC2)cc1	2%	0.8	7%	-1%	-7%	-1&-1	17	1%
Cc1cc(=O)[nH]c(/N=C(\N)Nc2ccc(Oc3ccccc3)cc2)n1	-4%	-0.1	-2%	-18%	-2%	0	-8	-3%
CCN=C1S/C(=C\c2ccc(N3CCOCC3)cc2C)C(=O)N1CC	29%	3.0	13%	?	2%	-9	-5	?

Other entries:
mol	ERG-DNA inh	D2 ag	RGS4 inh	Vif-A3F inh	Glioma ERSR ind	LDHA block	D2 antagonist	Vif-APOBEC3G blk
CCOc1cccc2sc(N(CCCN(C)C)C(=O)c3ccc(S(=O)(=O)N(CC)Cc4ccccc4)cc3)nc12	11%	1.5	11%	2%	-9%	0	-12	-26%
O=C(Nc1ccncc1)c1ccc(-c2ccccc2)cc1	-12%	1.2	-2%	-5%	3%	2&-11	-4	6%
Cc1cc(C)nc(NS(=O)(=O)c2ccc(N3C(=O)C4C5C=CC(C5)C4C3=O)cc2)n1 (centres undefined)	-4%	0.4	0%	1%	-5%	-4	5	2%
COc1ccccc1CN1C[C@@H]2C[C@@H](c3ccc(C)c(C)c3)N3CCC[C@@]23C1=O	1%	0.2	-48%	1%	-3%	3	35*	-7%
Cn1c2nc(=O)[nH]c(=O)c-2cc2ccccc21	·	·	-30%	-13%	-3%	-6	·	4%
CCCC1CC(C(=O)NC(C(C)Cl)C2OC(SC)C(O)C(O)C2O)N(C)C1 (centres undefined)	-1%	0.5	-13%	-5%	-2%	-3	4	-4%
CC1(C)CC(=O)C2=C(C1)Nc1[nH]c(=S)[nH]c(=O)c1C2c1ccccc1 (centres undefined)	2%	-1.0	?	1%	-5%	-6	6	2%
O=C(CCSCCc1ccncc1)NCCCN1CCOCC1	0%	0.4	-5%	3%	-1%	-6	0	1%
Cc1c(N(C)CS(=O)(=O)O)c(=O)n(-c2ccccc2)n1C	-9%	-0.9	17%	7%	2%&-2%&-6%	-11	-16	1%
Fc1ccc(N2CCN(Cc3ccccn3)CC2)cc1	-2%	14	0%	9%	1%	-31*	-17	-2%
COC(=O)c1ccc(CNC(=O)CSc2nc3sc(C)c(C)c3c(=O)n2C)o1	·	0.1	31%	-1%	-3%	2	4	-3%
Cc1ccc(Cn2c(SCC(=O)NCC3CCCO3)nc3c(sc4ccccc43)c2=O)cc1 (centres undefined)	-4%	-1.4	17%	-8%	-5%	2	-9	2%
COc1ccc(OC)c(S(=O)(=O)NC(C)CCc2ccccc2)c1 (centres undefined)	-17%	0.0	-8%	0%	-1%	0	8	0%
Cc1ccc(C(=O)NC(=S)Nc2ccc3c(c2)OCCO3)c(C)c1	-7%	0.3	?	1%	-5%	2	-26	0%
O=C(Cn1cncn1)NCc1ccccc1Br	0%	0.4	-22%	-4%	-3%	-3	16	-7%
Cc1cc2ncn(/N=C/c3ccc([N+](=O)[O-])s3)c2cc1C	·	2.8	-35%	1%	-4%	-2	1	-8%
Cc1ccc(S(=O)(=O)CCC(=O)Nc2cccc(S(=O)(=O)N3CCCCCC3)c2)cc1	-11%	-0.8	-13%	8%	-4%	-2	6	1%
FC(F)(F)c1cc(-c2ccccc2)nc(N2CCOCC2)n1	2%	-0.1	-12%	5%	-5%	-4	0	1%
CC(=O)Nc1ccc(S(=O)(=O)NCCN2CCOCC2)cc1	-7%	-1.0	-26%	-14%	-5%	-5	-5	4%
CCN1CCCC1CNC(=O)c1ccc2c(c1)NC(=O)/C(=C\c1ccc(OC)c(OC)c1)S2 (centres undefined)	-3%	0.5	?	?	-4%	-3	5	1%
CC(NC(=O)COC(=O)c1ccccc1SCC(=O)N1CCCC1)c1ccccc1 (centres undefined)	-11%	2.2	-15%	-11%	-3%	3	-10	0%
CCN(CC)S(=O)(=O)c1ccc2c(c1)N(CC(=O)NCc1ccccc1)C(=O)CS2	-2%	-0.5	-3%	2%	-2%	-1	·	3%

An excerpt from above in order of their number in ERG-DNA inh, largest number first.
| canonical_smiles | ERG-DNA inh | RGS4 inh | Glioma ERSR ind | D2 antagonist |
| --- | --- | --- | --- | --- |
| COc1ccc(/C(C)=N/NC(=O)c2ccncc2)cc1 | 10% | 1% | 1% | -13 |
| CCCCn1c(N)c(N(C)C(=O)c2cc3c(F)cccc3s2)c(=O)[nH]c1=O | 3% | 1% | -4% | · |
| Fc1ccc(N2CCN(Cc3ccccn3)CC2)cc1 | -2% | 0% | 1% | -17 |
